Screens deposited in PubChem by National Center for Advancing Translational Sciences (NCATS).
HPGD block: inhibitors of human 15-hydroxyprostaglandin dehydrogenase (HPGD); Potency, µM, for inactives: top-dose activity change, negative = inhibition, most hits filed as inhibitors; purified HPGD, NADH fluorescence kinetic, PGE2 substrate; AID 894; 150,000 compounds, 4.3% hits; active = well fitted inhibition curve with a large enough effect (not every such curve was filed as active); inconclusive = small, poorly fitted or top-dose-only effect, or another doubt; inactive = no such curve, though single readings can be large or run the other way;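 also: top concentration of the series not given in the record; plate controls included wells without enzyme; inactives centre near -10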
Target sequence (P15428 whole entry, looked up): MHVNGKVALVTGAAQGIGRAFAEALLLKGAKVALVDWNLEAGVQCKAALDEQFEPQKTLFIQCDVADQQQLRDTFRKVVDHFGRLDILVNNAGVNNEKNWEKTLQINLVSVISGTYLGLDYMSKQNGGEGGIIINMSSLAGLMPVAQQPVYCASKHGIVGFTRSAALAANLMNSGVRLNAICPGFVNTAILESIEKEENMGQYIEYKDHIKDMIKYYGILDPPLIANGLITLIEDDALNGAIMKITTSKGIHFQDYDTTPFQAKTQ
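20 nM HPGD preincubated 15 min at room temperature with compound in 50 mM Tris-HCl pH 8, 0.01% Tween 20. Started with 1 mM NAD+ and 30 uM prostaglandin E2; NADH fluorescence (360/450 nm) read 5 times over 30-s intervals, last minus first.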
An asterisk follows results filed as active; ? = inconclusive; & = joins results of further samples; [ ] = remark or other dose. % is scaled to controls: 0 for no effect and ±100 for the full control effect; potency is read from the fitted curve at half-maximal effect.

SMILES	HPGD block
CC(=NCCc1c(C)[nH]c2ccc(C)cc12)C1=C(O)CC(c2ccccc2)CC1=O (configuration not stated)	-10%
COc1cccc(C(=O)Nc2ccc(Cl)c(C(F)(F)F)c2)c1	-6%
C=CCOc1ccc(CNn2cn[nH]c2=S)cc1	?
CC1=C(C(N)=O)C(c2cccnc2)n2nc(-c3cccc(C)c3)nc2N1 (configuration not stated)	-8%
CC/C(O)=C1\C(=O)CC(C)(C)CC1=Nc1ccccc1C	0%
CC(C)CC(NC(=O)c1ccc(Cl)cc1)C(=O)OCC(=O)c1ccc2c(c1)NC(=O)CO2 (configuration not stated)	-7%
CCOC(=O)C(C)Sc1ncnc2nc[nH]c12 (configuration not stated)	0%
Cc1cc(C)nc(NC(=O)Cc2ccc([N+](=O)[O-])cc2)c1	1%
C(=N/Nc1nc(-c2ccccc2)cc(-c2ccccc2)n1)/c1cccnc1	-25%
CC[C@@H](CS(=O)(=O)O)[N+](=O)[O-]	-2%
Cn1c(SC/C=C/c2ccccc2)nnc1-c1cccs1	-6%
CC(C)Nc1nc(NC(C)C)nc(OCCOC(=O)c2ccccc2)n1	-6%
O=C(CSc1nnc(CNc2ccccc2)o1)N1CCc2ccccc21	-9%
CN1CCc2c(sc(/N=C/c3cccs3)c2C(N)=O)C1	-24%
COc1ccc(/C=C/C(=O)NC(=S)NNC(=O)c2c(-c3ccccc3)noc2C)cc1	-26%
Nc1ncc(Br)cc1N=Cc1ccccc1	-7%
CC1=C(C(N)=O)C(c2cccs2)n2nc(-c3cccc(C)c3)nc2N1 (configuration not stated)	0%
COc1ccc(C(=O)c2cnc3cc4c(cc3c2C)OCO4)cc1	-17%
CC1(C)CC2CC(C)(CN2S(=O)(=O)c2ccc(N)cc2)C1 (configuration not stated)	-3%
COC(=O)c1ccc(OCC(=O)c2ccccc2OC)cc1	-10%
CCn1c(C)cc(/C=C2\NC(=O)N(Cc3ccccc3)C2=O)c1C	-13%
O=C(C(NS(=O)(=O)c1cccc2nsnc12)c1ccccc1)N1CCN(c2ccccn2)CC1 (configuration not stated)	-13%
C/C(=N\OCC(=O)Nc1ccc(OC(F)(F)F)cc1)c1ccc2c(c1)OCCO2	?
[N-]=[N+]=CC(=O)C(Cc1ccccc1)N1C(=O)c2ccccc2C1=O (configuration not stated)	-13%
CCOc1cccc(-n2nnnc2-c2ccc(OC)cc2)c1	-24%
CC1=C(C(=O)OC(C)C)C(c2ccsc2)NC(=O)N1C (configuration not stated)	-4%
COc1cc(NC(=O)C2CCCN(S(=O)(=O)c3ccc4c(c3)oc(=O)n4C)C2)cc(OC)c1 (configuration not stated)	-10%
O=C(Nc1ccc(Cl)cc1)OCCn1nnnc1C(c1ccccc1)N1CCOCC1 (configuration not stated)	-17%
Nc1nc(CN2CCN(c3ccccc3F)CC2)nc(Nc2ccccc2)n1	-6%
Nc1ccc(N=Nc2ccccc2)c(N)n1	-6%&-7%&-18%&-8%
CCOC(=O)c1ccc(NC(=O)Cn2nnc(-c3ccccc3F)n2)cc1	-9%
CN(Cc1ccco1)C(=O)Cn1c(=O)oc2cc(S(=O)(=O)NCc3ccccc3)ccc21	-23%
CN1CCN(C(=S)Nc2cc([N+](=O)[O-])ccc2Cl)CC1	-11%
CCCC1=[N+](CC(=O)c2ccccc2)CCn2c(C)ccc21	-11%
CC(=O)Nc1ccc(NC(=O)Cc2sc(C)nc2-c2ccc(C)cc2)cc1	-1%
Cc1ccc(-n2nnnc2C(Cl)c2nnnn2-c2ccc(C)cc2)cc1	5µM*
O=C(c1ccc(N2C(=O)CCC2=O)cc1)N1CCOCC1	-11%
Cc1cccc(-n2c3nc(=O)[nH]c(=O)c-3cc3c(C)nn(-c4ccccc4)c32)c1	?
Cc1ccc(NC(=O)CC2C(=O)N(Cc3ccccc3)C(=S)N2NC(=O)c2ccccc2)c(C)c1 (configuration not stated)	-4%
COc1cc(NS(=O)(=O)c2ccc(OC)c(C)c2C)c(OC)cc1Cl	-17%
COc1ccc(C(CNC(=O)c2ccc(S(=O)(=O)N3CCOCC3)cc2)N2CCCCC2)cc1 (configuration not stated)	-3%
COc1ccc(N2CCN(C(=O)CCc3ccc(S(=O)(=O)NC(C)C)cc3)CC2)cc1	0%
CCOC(=O)N1CCN(Cc2nc(N)nc(Nc3ccccc3C)n2)CC1	-8%
COc1ccccc1CNC(=O)CCSCc1cccc(Cl)c1	-27%
COC(=O)C(Cc1ccccc1)NC(=O)CSc1nc(C)cc(=O)[nH]1 (configuration not stated)	-16%

Reformatted in markdown: entries from further up
| mol | HPGD block |
| --- | --- |
| COc1ccc(C(CNC(=O)c2ccc(S(=O)(=O)N3CCOCC3)cc2)N2CCCCC2)cc1 (configuration not stated) | -3% |
| COc1ccc(N2CCN(C(=O)CCc3ccc(S(=O)(=O)NC(C)C)cc3)CC2)cc1 | 0% |

The listing continues:
SMILES	HPGD block
O=C1CC(c2ccco2)CC2=C1C(c1ccccc1)n1nc(C(F)(F)F)nc1N2 (configuration not stated)	?
CCOC(=O)Cc1csc(N)n1	-10%
COc1cccc(NS(=O)(=O)c2ccc3[nH]cc(C(=O)NC4CC4)c(=O)c3c2)c1	-10%
Cc1cc(C)nc(NN2C(=O)/C(=C/c3ccc(O)cc3)SC2=S)n1	-11%
CCOC(=O)C(NC(C)=O)(OCc1ccccc1)C(F)(F)F (configuration not stated)	-2%
Cc1onc(-c2c(F)cccc2Cl)c1C(=O)N1CCN(S(C)(=O)=O)CC1	-9%
CCOn1c(-n2nc(C)cc2C)nc2ccccc2c1=O	-12%
COc1cc(NS(=O)(=O)c2ccc(N)cc2)ncn1	-4%&2%
O=c1[nH]c2c(s1)C(c1ccc(O)cc1)C1C3CCC(C3)C1S2 (configuration not stated)	?
Cc1ccc(-c2cc(C(=O)NCc3ccco3)c3ccccc3n2)o1	?
N=C1/C(=C\c2ccc(-c3cccc(Cl)c3)o2)C(=O)N=C2SC=C(c3ccccc3)N12	14µM*
Cc1ccc(-c2c(C#N)c(N)n(-c3ccc(C)cc3)c(=O)c2C#N)cc1	?
CC(C)CN1CCC(C(=O)N2CCN(c3ccccc3F)CC2)CC1	-2%
CCCS(=O)(=O)c1c(S(=O)(=O)CCC)c2c(C)cccn2c1C(N)=O	1%
O=C(NCc1ccc2c(c1)OCO2)c1cc(-c2ccc(Cl)cc2Cl)on1	-18%

For reference, 4 of the compounds above.
SMILES	HPGD block
Cc1ccc(-c2c(C#N)c(N)n(-c3ccc(C)cc3)c(=O)c2C#N)cc1	?
CC(C)CN1CCC(C(=O)N2CCN(c3ccccc3F)CC2)CC1	-2%
CCCS(=O)(=O)c1c(S(=O)(=O)CCC)c2c(C)cccn2c1C(N)=O	1%
O=C(NCc1ccc2c(c1)OCO2)c1cc(-c2ccc(Cl)cc2Cl)on1	-18%

The listing continues.
SMILES	HPGD block
Cc1cc2ccccc2cc(C)c1=O	-16%
COc1ccc(C(=O)NCC2CCCO2)cc1 (configuration not stated)	13µM*
CCOCCCNC(=O)c1ccc(N(C)S(=O)(=O)c2ccc(OC)cc2)cc1	1.6µM*
Cc1ccc(-c2[nH]c3ccccc3c2SCCNC(=O)c2cc3ccccc3oc2=O)cc1	-6%
CCOC(=O)C1=C(C)NC2=C(C(=O)CC(C)(C)C2)C1c1ccc(N(C)C)cc1 (configuration not stated)	-5%
NS(=O)(=O)c1ccc(CCNC(=S)Nc2ccccc2)cc1	-11%
Cc1ccc(S(=O)(=O)NC2OC(=O)C(Cl)=C2Cl)cc1 (configuration not stated)	-12%
CSc1nc2n(n1)C(c1ccccn1)C1=C(CC(C)(C)CC1=O)N2 (configuration not stated)	?
Cc1cc(NC(=O)CSc2ncn(-c3ccccc3)n2)no1	-1%
Cc1ccc(CN2CC34C=CC(O3)C(C(=O)NCc3ccc5c(c3)OCO5)C4C2=O)cc1 (configuration not stated)	-14%
Cc1nn(CCC#N)c2nc(-c3ccccc3)cc(C(F)(F)F)c12	?
Cn1c(=O)c2c(nc(SCCNS(=O)(=O)c3ccccc3)n2C)n(C)c1=O	3%
CCCCN(CCCC)S(=O)(=O)c1ccc(NC(=O)CN2CCOCC2)cc1	-17%
O=C(NC1CCCCCCC1)c1ccc2c(c1)OCO2	16µM*
N#CCCn1c(SCC(=O)Nc2ccc(N3CCOCC3)cc2)nc2ccccc21	-7%
COc1ccc(/C=N/NC(=O)CNC(=O)c2cccs2)cc1	-18%
COc1ccc(N(C)C(=O)c2ccc3snnc3c2)cc1	-22%
CN(c1ccccc1)S(=O)(=O)c1cccc(C(=O)Nc2ccc3c(c2)CCC3)c1	-24%
Cc1nn(Cc2ccc(C(=O)N3c4ccc(F)cc4CCC3C)o2)c(C)c1Br (configuration not stated)	-6%
O=C1N=c2ccccc2=C1c1c(O)n(-c2cccc(F)c2)[nH]c1=O	5.6µM*
CC(=O)N1CCN(C(=O)CCc2nc3sc4c(c3c(=O)[nH]2)CCCC4)CC1	-6%
Cc1c(Cl)cccc1NC(=O)CSCC(N)=O	-8%
COc1cc2c(cc1NC(=O)CSc1nnc(Cc3cccs3)n1Cc1ccco1)oc1ccccc12	-30%
CC(=O)c1cccc(NC(=O)c2cc(Cl)sc2Cl)c1	?
O=C1N(CC(=O)N2CCc3ccccc32)CCN1Cc1ccc(Cl)cc1	-11%
COC(=O)[C@@]1(Cc2ccc(OC)cc2)[C@H]2c3cc(C(=O)N(C)C)n(Cc4nc5ccccc5[nH]4)c3C[C@H]2CN1C(=O)c1ccccc1	-25%
CCOC(=O)CSc1ncnc2c1sc1nc(N3CCOCC3)c3c(c12)CCCC3	?
Cn1nnnc1SCCNCc1ccccc1OCc1ccc(Cl)cc1	-20%
COCCCNC(=O)/C=C/c1ccc(Cl)cc1	-21%
CCOCCCNC(=O)Cc1ccc(OC)c(OC)c1	-1%

In the list so far, these contain a nitro group on carbon.
SMILES	HPGD block
Cc1cc(C)nc(NC(=O)Cc2ccc([N+](=O)[O-])cc2)c1	1%
CC[C@@H](CS(=O)(=O)O)[N+](=O)[O-]	-2%
CN1CCN(C(=S)Nc2cc([N+](=O)[O-])ccc2Cl)CC1	-11%

Next part:
SMILES	HPGD block
CC1(C)Cc2ccccc2-c2nnc(-c3ccc(O)cc3)n21	-3%
CCSc1nnc(CCNC(=O)OC(C)(C)C)o1	4%
Cc1cc(-c2n[nH]c(=S)o2)c(C)n1-c1ccccc1	-25%
CC1=C(C(N)=O)C(c2ccc(C)o2)C(C(N)=O)=C(C)N1	-10%
COc1ccc(COc2cc(-c3cccc(OC)c3)nc3ccc(NC(=O)c4ccc(N(C)C)cc4)cc23)cc1	?
CCN(c1ccccc1)S(=O)(=O)c1cc(C(=O)Nc2ccc(F)c(F)c2)ccc1F	-13%
Cn1ccnc1C(O)c1cc(C(C)(C)C)c(O)c(C(C)(C)C)c1 (configuration not stated)	-12%
C=CCn1c(COc2ccccc2)nnc1SCC(=O)O	-4%
C/C(=N\NC(=O)CSCc1ccc(Cl)cc1)c1ccc2c(c1)OCCO2	-10%
Cc1nn(C(=O)c2ccoc2C)c(N)c1-c1ccccc1	-11%
CC(=O)Nc1ccc([N+](=O)[O-])cn1	-9%
COc1ccc(C(=O)NCC(c2cccnc2)N2CCN(c3ccccc3)CC2)cc1OC (configuration not stated)	-5%
Cc1cc(NC(=O)c2cc([N+](=O)[O-])cc([N+](=O)[O-])c2)n(-c2ccccc2)n1	-15%
C=CCNC(=S)NNC(=O)COc1ccc(Br)cc1	-15%
Cn1c(=O)oc2cc(S(=O)(=O)N3CCC(C(=O)NCc4ccc(F)cc4)CC3)ccc21	-10%

HPGD block: entries above that show a hit
SMILES	HPGD block
Cc1ccc(-n2nnnc2C(Cl)c2nnnn2-c2ccc(C)cc2)cc1	5µM*
N=C1/C(=C\c2ccc(-c3cccc(Cl)c3)o2)C(=O)N=C2SC=C(c3ccccc3)N12	14µM*
COc1ccc(C(=O)NCC2CCCO2)cc1 (configuration not stated)	13µM*
CCOCCCNC(=O)c1ccc(N(C)S(=O)(=O)c2ccc(OC)cc2)cc1	1.6µM*
O=C(NC1CCCCCCC1)c1ccc2c(c1)OCO2	16µM*
O=C1N=c2ccccc2=C1c1c(O)n(-c2cccc(F)c2)[nH]c1=O	5.6µM*

Additional compounds.
SMILES	HPGD block
O=C(OCc1c(Cl)cccc1Cl)c1cccnc1Cl	-7%
CC(O)C(NS(=O)(=O)c1ccc(Cl)cc1)C(=O)OCC(=O)Nc1cccnc1Cl (configuration not stated)	2%
COc1ccc(/C=N/c2nc3ccccc3n2CCN2CCCCC2)cc1OC	-10%
Cc1nnc(-c2ccccc2)c(=O)n1/N=C/c1c(O)ccc2ccccc12	-18%
CC(=O)O/N=C(/c1nonc1N)N1CCN(c2ccc([N+](=O)[O-])cc2Cl)CC1	-12%
CC1Cc2ccccc2N1c1ncnc2c1nnn2Cc1ccccc1Cl (configuration not stated)	?
Cc1ccc(C2=NNC(C(O)C(O)C(O)C(C)O)S2)cc1 (configuration not stated)	-22%
CCCc1[nH]nc2c1C(c1c(C)nn(-c3ccccc3)c1Cl)C(C#N)=C(N)O2 (configuration not stated)	-3%
Cc1nnc(SCC(=O)NCc2ccco2)n1-c1ccc(F)cc1	-8%
C=C(C)C1CC=C(C)/C(=N/NC(=O)COc2ccccc2Cl)C1 (configuration not stated)	-2%
O=C(COC(=O)c1cccc(C(F)(F)F)c1)NCc1ccc(Cl)cc1	14µM*
CC(C)COc1nc2ccccc2c(=O)n1OCC(=O)O	-10%
CCOC(=O)/C=C1\CC(=O)Nc2cc(C)c(C)cc2N1	51%[activator]
c1cc(-c2ccncc2)ccn1	-1%
O=c1nc2ccccc2c2n1CC(CN1CCN(c3ccc(F)cc3)CC1)N2 (configuration not stated)	-17%
COC(=O)[C@H]1O[C@@H](c2cc(OC)c(C)c(OC)c2OCc2ccccc2)[C@H](C)[C@@H]2O[C@]12C	-9%

The list is partial. The share of hits here may be higher or lower than overall.
